E coli growth: E. coli growth inhibition | 330,000 tested, 0.21% active | AID 1053175 | Escherichia coli growth, OD600, 23 h; hits give low values | OD600 absorbance (concentration not given with the values);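 active = OD600 absorbance below the run mean of sample wells minus 3.6 SD, in any replicate, cut at about 0.56 in these data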;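 note: stock transfer was 300 nL into about 60 µL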
HNF4A DNA FP: change in binding of human HNF4 alpha to DNA. P41235. HNF4a-FITC DNA binding, fluorescence polarization, 1 h. activity change, % at 10 µM. 360,000 tested, 0.3% active. AID 1224865; in the data active = activity change above about 30%, passing the limit was not always enough;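 note: controls were the assay level and a saturating level of protein; the project sought stronger binding though the title names inhibitors; some compounds called inactive have numbers as strong as hits; positive values seem to mean higher polarization but the record does not say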
Target sequence (P41235 whole entry, looked up): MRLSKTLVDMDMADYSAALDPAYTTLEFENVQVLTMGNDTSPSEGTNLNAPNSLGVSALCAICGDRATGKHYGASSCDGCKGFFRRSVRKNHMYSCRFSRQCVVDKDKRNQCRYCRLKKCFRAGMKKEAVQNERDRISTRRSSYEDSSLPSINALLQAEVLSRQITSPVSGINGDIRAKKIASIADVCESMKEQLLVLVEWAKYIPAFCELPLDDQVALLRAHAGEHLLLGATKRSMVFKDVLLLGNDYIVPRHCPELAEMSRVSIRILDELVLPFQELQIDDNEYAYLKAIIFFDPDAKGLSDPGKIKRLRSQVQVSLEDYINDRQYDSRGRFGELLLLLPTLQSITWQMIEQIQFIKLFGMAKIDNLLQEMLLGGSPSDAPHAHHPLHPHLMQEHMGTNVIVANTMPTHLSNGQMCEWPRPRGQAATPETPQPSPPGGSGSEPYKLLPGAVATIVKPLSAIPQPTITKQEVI
MLL AF4-AF9 inh: inhibitors of human MLL-AF4/AF9 interaction; AlphaScreen, biotin-AF4 peptide binding to FLAG-AF9; inhibition, % at 10 µM; 350,000 tested, 0.47% active; AID 651704;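 active = every replicate reaching a set inhibition limit, whatever the replicate mean, cut at about 25% in these data; inconclusive = mean inhibition reaches that limit but some replicates miss it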;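 note: 0% = plate neutral control median and 100% = total signal loss; the record names both 10 and 1 µM as test concentration; the first replicate is given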
UCH37 inh: inhibitors of human deubiquitinating enzyme UCH37 | inhibition, % (no concentration beside the values) | AID 588478 | 330,000 tested, 0.33% active | purified proteasome/UCH37, Ub-AMC cleavage fluorescence;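 active = mean of two replicates above 20%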;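 note: 0% = compound-free wells with enzyme and 100% = wells lacking proteasome; stock transfer was 100 nL into about 20 µL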
Target sequence (Q9Y5K5 whole entry, looked up): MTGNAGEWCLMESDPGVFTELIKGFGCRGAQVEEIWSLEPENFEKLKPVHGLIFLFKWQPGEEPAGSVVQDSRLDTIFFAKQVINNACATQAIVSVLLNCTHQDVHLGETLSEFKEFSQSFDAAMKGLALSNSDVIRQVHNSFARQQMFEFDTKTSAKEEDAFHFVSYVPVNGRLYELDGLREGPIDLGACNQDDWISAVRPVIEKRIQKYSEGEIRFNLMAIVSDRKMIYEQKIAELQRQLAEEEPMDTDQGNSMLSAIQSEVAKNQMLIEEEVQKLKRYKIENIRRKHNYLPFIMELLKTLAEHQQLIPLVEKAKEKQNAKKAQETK
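Material: Human UCH37 enzyme supplied as purified proteasome complex | Schedule: 30 min preincubation with enzyme, 25 min cleavage at room temperature | Detection: AMC fluorescence 355/460 nm | Measure: % inhibition of Ub-AMC cleavage fluorescence | Controls: Wells without proteasome as full block, compound-free enzyme plus substrate as uninhibited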
FGF22 binding: shifts melting point of recombinant human FGF22. Q9HCT0. recombinant FGF22 thermal shift, SYPRO orange fluorescence; percent of sucrose octasulfate shift, DMSO zero. calls only at 9.99 µM. 340,000 tested, 1.5% active;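 active = melting point raised past a set limit in the mean and every replicate; inconclusive = no clear call; three in four hits are not shown here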
Target sequence (Q9HCT0 whole entry, looked up): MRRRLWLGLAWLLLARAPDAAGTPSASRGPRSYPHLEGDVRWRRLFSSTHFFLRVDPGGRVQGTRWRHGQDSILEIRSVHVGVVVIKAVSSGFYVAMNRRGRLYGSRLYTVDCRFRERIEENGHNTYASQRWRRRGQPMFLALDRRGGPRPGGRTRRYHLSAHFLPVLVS
RanGTP-Imp inh: disruptors of Ran-importin-beta complex formation – biochemical, FRET, CFP-Ran, YFP-importin-beta, homogeneous, primary screen | cell-free CFP-Ran/YFP-importin-beta FRET ratio | inhibition, % (test concentration not listed) | 300,000 tested, 1.1% active | AID 2216;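 active = most replicates above 15%; inconclusive = exactly half above 15%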;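 note: 0% = DMSO wells and 100% = Ran loaded with GDP instead of GTP; wells of about 40 µL received 100 nL stock; the first replicate is given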
Vif TR-FRET: inhibitors of Vif binding to APOBEC3G peptide, primary screen, biochemical, TR-FRET, GST-Vif 1-94, biotin-A3G peptide, dose response retest (AID 1117319). inhibition, %; hits with a dose series show IC50 in µM. TR-FRET GST-Vif / biotin-A3G peptide binding; higher % means a stronger effect; test concentration not given here; strong numbers were not always called active. 260,000 tested, 0.57% active;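 active = above the screen mean plus three standard deviations and confirmed in dose response; inconclusive = results disagree or hit not tested in dose response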;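 note: Vif residues 1-94 fused to GST binding biotinylated APOBEC3G peptide 110-148; 0% = full assay without inhibitor and 100% = GST in place of GST-Vif; retest series ran down from 100 µM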
Starred values were filed as active, the others as inactive; i = inactive; ? = inconclusive; · = no result given; & = joins results of further samples.

#	canonical_smiles	UCH37 inh	HNF4A DNA FP	RanGTP-Imp inh	E coli growth	MLL AF4-AF9 inh	FGF22 binding	Vif TR-FRET
1	O=C(c1cc(C2CC2)nn1-c1ccccc1)N1CCN(Cc2c(F)cccc2Cl)CC1	2.4	-1.1	·	0.672	0.0	i	·
2	Cc1nc2nc(SCc3ccc([N+](=O)[O-])cc3)[nH]c2cc1Br	4.6	0.2	5.7	0.623	-9.1	i	-12.4%
3	O=C(N/N=C/c1ccc(O)cc1)/C(=C/c1ccccc1)CCO	·	-1.4	3.5	·	·	·	13.1%
4	NC(=O)C1(C(N)=O)OC1c1ccccc1 (centres undefined)	2.8	0.2	-0.4	0.679	-2.5	i	-6.0%
5	O=[N+]([O-])c1ccc2c(c1)-c1ccccc1C2O (centres undefined)	·	-0.9	·	·	1.9	i	18.9%
6	COc1ccc(S(=O)(=O)NCc2cccnc2)cc1NC(=O)c1ccc(C)cc1	1.7	-0.9	7.5	0.66	-0.3	i	-13.0%
7	CCCn1c(=O)c(C(=O)NCCc2ccc(Cl)cc2)c(O)c2ccccc21	-1.2	-1.5	0.6	0.647	2.1	i	·
8	O=C(CO/N=C/c1cccc([N+](=O)[O-])c1)NC1CCCCCC1	·	-0.6	0.7	·	·	·	5.5%
9	COc1ccc(CCC(=O)NCCS(=O)(=O)N2CCN(c3ccccc3)CC2)cc1	0.6	2.0	4.6	0.72	-1.5	i	·
10	CN(CC(O)COc1ccc2ccccc2c1)C1CCCCC1 (centres undefined)	6.8	-2.5	0.2	0.598	5.3	i	-2.3%
11	CC(=O)NC(c1ccc([N+](=O)[O-])cc1)c1c(O)ccc2ccccc12 (centres undefined)	3.6	-1.1	-1.2	0.631	0.2	i	1.2%
12	Cc1nc(NC(=O)/C=C/c2ccccc2)sc1C(=O)Nc1cccc(Cl)c1	·	-4.5	?	·	-13.0	i	31.0%
13	CC(=O)c1ccc(S(=O)(=O)NCCC(=O)OCC(=O)N2CCCC2=O)cc1	6.9	1.6	5.4	0.628	10.4	i	1.7%
14	N=c1c2ccccc2nnn1-c1cccc(C(F)(F)F)c1	0.9	-0.9	2.1	0.698	-0.3	·	2.6%
15	O=C(COc1ccccc1F)N1CCc2ccccc2C1	4.1	-0.6	?	0.707	-7.6	i	19.6%
16	Cc1noc(C)c1NC(=O)N(C)C[C@@H]1OCc2cnnn2CCCC(=O)N([C@@H](C)CO)C[C@@H]1C	·	7.0	·	·	-0.7&-1.2	i	·
17	COc1ccc(Cl)cc1NC(=O)CN(C)CC(=O)NCc1cccs1	5.5	0.8	·	0.666	4.0	i	23.1%
18	CN(C)CCN(C(=O)/C=C/c1cccs1)c1nc2ccc(Br)cc2s1	-26.3	-1.7	-2.2	0.767	2.9	i	·
19	Cc1cc(C)nc(N2CCCC(C(=O)Nc3nc4ccc(S(C)(=O)=O)cc4s3)C2)n1 (centres undefined)	5.3	-1.7	?	0.666	·	·	0.9%
20	Cc1cc(Br)ccc1NC(=O)CNC(=O)CSc1ncccn1	5.6	-0.4	·	0.684	-0.2	i	5.7%
21	CCC(C)c1ccc(S(=O)(=O)N2CCN(CC(O)COCC3CCCO3)CC2)cc1 (centres undefined)	4.5	-1.5	·	0.702	7.6	i	5.2%
22	COc1ccc(CCN=C(NS(=O)(=O)c2ccc(Cl)cc2)c2ccccc2)cc1	2.2	·	-0.5	0.689	-0.5	i	28.4%
23	CCCCn1c(N)c(N(CC(C)C)C(=O)c2cc(-c3ccc(OC)cc3)nc3ccccc23)c(=O)[nH]c1=O	-32.3	-1.0	·	0.701	?	i	·
24	COc1ccc(NC(=O)CSc2nnc(-c3ccccc3C)n2C)cc1	-0.2	-2.0	6.1	0.749	·	·	-1.2%
25	Cn1c(SCC(=O)c2ccccc2)nnc1C1CC1	2.2	1.5	0.0	0.703	·	·	3.0%
26	COc1ccc(C=C2CCC3C(=O)CCCC3(C)C2=O)cc1 (centres undefined)	·	-2.5	·	·	7.5	i	·
27	O=[N+]([O-])c1cccc(COc2cccc(CO)c2)c1	·	0.4	·	·	2.0	i	·
28	COc1ccc(NC(=O)c2ccc3[nH]c(C)c(C)c3c2)c(OC)c1	-19.4	1.3	-2.0	0.69	0.4	i	4.2%
29	COc1ccc(NC(=O)CSCC(=O)Nc2cccc(S(=O)(=O)N3CCCCCC3)c2)cc1	3.6	-1.9	8.1	0.65	5.4	i	-2.5%
30	O=C(c1ccc(F)cc1)N1CCN(c2ncccn2)CC1	-2.2	-0.1	-1.1	0.719	·	·	-6.7%

2 of the compounds above, as labelled records.
21) CCC(C)c1ccc(S(=O)(=O)N2CCN(CC(O)COCC3CCCO3)CC2)cc1 (centres undefined)
  UCH37 inh: 4.5; HNF4A DNA FP: -1.5; RanGTP-Imp inh: ·; E coli growth: 0.702; MLL AF4-AF9 inh: 7.6; FGF22 binding: i; Vif TR-FRET: 5.2%
22) COc1ccc(CCN=C(NS(=O)(=O)c2ccc(Cl)cc2)c2ccccc2)cc1
  UCH37 inh: 2.2; HNF4A DNA FP: ·; RanGTP-Imp inh: -0.5; E coli growth: 0.689; MLL AF4-AF9 inh: -0.5; FGF22 binding: i; Vif TR-FRET: 28.4%

New compounds follow:
#	canonical_smiles	UCH37 inh	HNF4A DNA FP	RanGTP-Imp inh	E coli growth	MLL AF4-AF9 inh	FGF22 binding	Vif TR-FRET
31	Nn1c(SCC(=O)NCC2CCCO2)nnc1-c1cc(Cl)ccc1Cl (centres undefined)	0.3	3.6	·	0.649	-1.3	i	-2.1%
32	COC(=O)c1ccc(C(=O)NC2CCCc3c2cnn3-c2ccc(C)c(C)c2)cc1 (centres undefined)	-0.1	2.9	2.3	0.709	1.2	i	-3.0%
33	COC(=O)C1=C(C)N(c2cc(C)cc(C)c2)/C(=C/c2ccco2)C1=O	6.0	-2.8	?	0.694	7.5	i	?
34	CC(=O)OCCn1c([N+](=O)[O-])cnc1C=[N+]([O-])C1CCCCC1	·	0.1	·	·	-3.2	i	·
35	CCCC1(C(=O)OC)NC(c2cccc(F)c2)C2C(=O)N(CC)C(=O)C21 (centres undefined)	2.4	-1.5	-3.3	0.672	·	·	3.0%
36	Cc1ccc(C)c(N2CCN(C(=O)Cn3ncc4c([nH]c5ccc(C)cc54)c3=O)CC2)c1	6.5	-2.4	-1.6	0.721	0.3	i	·
37	Cc1ccc(NC(=O)c2ccc3nsnc3c2)c(Cl)c1	-7.8	2.0	-3.1	0.727	-1.8	i	·
38	COc1cccc(NC(=O)C(=O)NCC(c2ccco2)N2CCc3ccccc3C2)c1 (centres undefined)	1.4	-0.7	-4.1	0.698	0.8	i	-1.5%
39	O=[N+]([O-])c1cc(-c2csc(NCCc3nc4cc(C(F)(F)F)ccc4n3CCCO)n2)ccc1Cl	0.2	-0.5	7.2	0.638	6.0	i	·
40	CCN(CC(=O)NCc1cccs1)S(=O)(=O)c1cccc(C(C)=O)c1	3.5	6.4	?	0.671	·	·	0.5%
41	CC(=O)n1cc([C@H]2C=C(C(=O)NCc3ccccc3)O[C@@H](OCCCCO)C2)c2ccccc21	-0.7	8.7	2.5	·	-10.6&0.9	i	-3.2%
42	Cc1ccccc1NC(=O)CCc1c(C)nn(-c2ccc(N3CCCCC3)nn2)c1C	2.4	3.5	3.6	0.662	10.5	i	6.1%
43	O=C(CN1C(=O)C2CC=CCC2C1=O)Nc1cc(C(F)(F)F)ccc1N1CCCC1 (centres undefined)	3.4	1.4	0.3	0.695	-0.2	i	6.6%
44	Cc1cc(NC(=O)CSc2nnc(C)n2-c2ccccc2)no1	2.8	0.7	1.3	0.698	0.4	i	1.5%
45	O=C(Nc1ccc(F)c(Cl)c1)c1cccnc1	·	-5.2	4.2	·	1.5	i	63.3%
46	C/C(=N/NC(=O)c1ccncc1)c1ccc(NC(=O)c2ccccc2)cc1	·	-1.8	2.7	·	4.5	i	-8.5%
47	O=C1CCC[C@@H]2C[C@@]3(C[C@@H]4CCN1[C@H]24)Nc1cc(Cl)ccc1NC3=NCc1ccccc1	·	-4.5	·	·	7.8	i	·
48	CSC1=NCCN1C(=O)c1ccc(Br)o1	-1.9	1.4	1.0	0.726	-2.3	i	8.1%
49	CCOc1ccccc1NC(=S)NCc1ccccc1	1.5	0.8	-1.0	0.691	2.5	i	3.1%
50	Cc1sc(N/N=C/C=C/c2ccccc2)nc1-c1ccccc1	·	-0.1	0.0	·	·	·	-3.7%
51	CCC(C(=O)OC)n1cnc2c(nnn2-c2ccc(C)cc2)c1=O (centres undefined)	0.4	0.1	7.0	0.722	-1.9	i	·
52	Cn1c(C(=O)N2CCCC(C(=O)NCCN3CCOCC3)C2)cc2sccc21 (centres undefined)	4.8	-0.4	1.2	0.727	-4.2	i	0.0%
53	COC(=O)c1ccc(C)c(NC(=O)c2ccc(CN3CCc4ccccc4C3)cc2)c1	3.1	0.7	1.2	0.599	5.4	i	5.8%
54	Cc1ccc(C(=O)/C=C/c2ccc(-c3ccc(C)cc3)o2)cc1	0.7	5.8	-45.0	0.731	·	·	11.2%
55	COc1cc(/C=N/Nc2ccc3ccccc3c2)ccc1OC(=O)c1ccco1	·	0.7	7.8	·	·	·	10.7%
56	O=S(=O)(Cc1nnnn1-c1ccc(Br)cc1)c1ccccc1	·	3.5	·	·	-1.0	i	-3.1%
57	CN1C(=O)C(C)(C)c2cc(S(=O)(=O)N3CCC(C(=O)NCc4ccc(F)cc4)CC3)ccc21	6.4	1.0	7.5	0.744	3.2	i	·
58	COc1ccc(C2C(C(=O)N3CCN(c4ccc(OC)cc4)CC3)c3ccccc3C(=O)N2C)cc1 (centres undefined)	1.8	3.4	-2.4	0.7	·	·	-1.7%
59	Cc1oc2nc(SCC(=O)NC3CCCCC3)nc(N)c2c1C	3.4	6.4	-3.4	0.724	·	·	·
60	CCOc1ccccc1N(C(=O)c1snc(C(N)=O)c1N)C(C(=O)NCCC(C)C)c1ccco1 (centres undefined)	-67.7	-2.4	2.6	0.662	0.5	i	18.2%&0.8%
61	O=C(NCc1ccco1)c1cc(-c2ccccn2)nc2ccccc12	2.6	0.5	-2.8	0.717	·	·	?
62	CCCn1c(-c2ccc[nH]c2=O)nc2ccccc21	-235.6	0.9	·	0.727	0.2	i	-0.9%
63	Cc1sc2ncn3ncnc3c2c1C	2.3	-1.4	-1.6	0.691	·	·	-1.7%
64	O=C(O)c1cccc(S(=O)(=O)Nc2ccc(Oc3ccccc3)cc2)c1	1.1	-1.9	·	0.695	-0.2	i	·
65	Cc1cnc(C(=O)NC2CCSc3ccccc32)cn1 (centres undefined)	-1.1	2.3	-3.9	0.68	-2.4	i	·
66	CC(C(=O)N(C)C1CCS(=O)(=O)C1)N1C(=O)/C(=C/c2ccco2)SC1=S (centres undefined)	7.7	7.8	3.1	0.683	12.6	i	·
67	Cc1sc2nc(C(C)C)nc(SCC(=O)NCc3ccco3)c2c1C	4.3	5.5	5.3	0.668	·	·	1.0%
68	COc1cccc(C(=O)COC(=O)C2CC3CCCC(C2)C3=O)c1 (centres undefined)	-1.1	-2.5	?	0.671	-16.9	i	-1.2%
69	CC1C(=O)N(Cc2cccc(F)c2)c2ccccc2N1C(=O)c1ccccc1 (centres undefined)	0.9	-1.9	1.5	0.669	1.7	i	-3.1%
70	Cc1c(Nc2nc3ccccc3nc2NS(=O)(=O)c2cccc(Cl)c2)c(=O)n(-c2ccccc2)n1C	1.7	1.1	-0.4	0.658	-1.5	i	-8.1%
71	CCCC1=Nc2cc(C(=O)NCCCN3CCN(C)CC3)ccc2Sc2ccccc21	4.0	5.4	-7.0	0.723	16.9	i	·
72	Cc1ccc(C(=O)N2CCN(c3ncnc4c(C)csc34)CC2)cc1	3.0	2.7	-1.5	0.709	-0.1	i	3.7%
73	O=C(c1ccc(S(=O)(=O)N2CCCCC2)cc1)N1CCCc2ccccc21	0.2	0.8	3.1	0.722	·	·	-2.2%

The list is partial (hit frequency here may not be typical).
